Calb biofilm kill – clotrimazole potentiators killing C. albicans biofilm, primary screen, 4-compound mixtures | 0.02% of 120,000 active | C. albicans biofilm persisters + clotrimazole, fluorescence viability; primary screen in compound mixtures of four per well | inhibition, % at 7.6 µM;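 active means inhibition above 30.3% in the primary screen of four-compound pools, then above 30% when the compound was retested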;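 further: compounds exposed to preformed 24 h biofilms for 48 h; the number belongs to the whole pool; some results filed as inactive read as strong as hits; inactives centre near 12; 0% = biofilm with clotrimazole alone and 100% = kill control; retested singly at about 60 µM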
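Probe or stimulus – Clotrimazole 50 µg/mL co-treatment · System – C. albicans biofilms · Schedule – 24 h biofilm formation, then 48 h compound exposure, 37 °C · Evaluation – percent inhibition of biofilm viability · Technique – 2-h Alamar Blue fluorescence, 535/590 nm excitation/emission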
Numbers without * were called inactive.

molecule | Calb biofilm kill
CCCn1c(=N)n(CC(O)COc2ccc(C)cc2)c2ccccc21 (stereo not given) | 20
COc1ccc(S(=O)(=O)N(CC(=O)N2CCN(c3ccccc3OC)CC2)c2ccccc2)cc1 | 12
O=C(O)CCC(=O)N1N=C(c2ccccc2)CC1c1cccs1 (stereo not given) | 29
O=C(Cn1cnc([N+](=O)[O-])n1)NCCc1ccccc1 | -2
COc1ccc(N2CCN(CCNC(=O)c3ccc4c(c3)[nH]c(=S)n3c5ccccc5nc43)CC2)cc1 | 5
O=C(Cn1cnnn1)Nc1cccc([N+](=O)[O-])c1 | 15
COCCNC(=O)C(c1c[nH]c2ccccc12)N(C(=O)c1snc(C(N)=O)c1N)c1cccc(OC)c1 (stereo not given) | 14
CCOc1ccc(CCNc2nc3ccccc3n3cnnc23)cc1OCC | 24
CN(C)C(=O)c1coc2nc3ccccc3nc12 | 19
Cc1cc(C(=O)N/N=C/c2sc(N3CCOCC3)nc2-c2ccccc2)c(C)o1 | 14
CC(CN1CCOCC1)OC(=O)Cc1ccc(Cl)cc1 (stereo not given) | 11
O=C(O)CCC(=O)Nc1cccc(-c2csc(-c3ccccc3)n2)c1 | 10
O=C(NNC(=O)c1cc(-c2cccnc2)nc2ccccc12)Nc1ccc(Cl)cc1 | 13
CSc1ccccc1C(=O)Nc1nc2ccccc2[nH]1 | 18
CCCCOc1c(Br)cc(/C=N/O)cc1OCC | 9
CCC(=O)c1ccc(OCC(=O)O)c(OC)c1 | 7
CCC(C)[C@H](NC(=O)NCCC1=CCCCC1)C(=O)OC (stereo not given in full) | 16
COC(=O)CNC(=O)C12CC3CC(C1)CC(c1ccc(C)cc1)(C3)C2 | 1
COC(=O)c1sccc1NC(=O)C1CCCCC1C(=O)O (stereo not given) | 9
NS(=O)(=O)c1ccc(NC(=O)c2ccc(S(=O)(=O)N3CCOCC3)o2)cc1 | 26
O=[N+]([O-])c1ncccc1Oc1nc(-c2cccnc2)nc2ccccc12 | 15
Cc1cc(=O)oc2cc(OCC(=O)OCC(=O)Nc3ccc(C(C)C)cc3)ccc12 | 5
O=C(c1cc2ccc([N+](=O)[O-])cc2oc1=O)N1CCOCC1 | 7
O=C(CN1C(=O)c2ccccc2C1=O)N1CCN=C1c1ccccc1 | 13
Cc1ccc(-c2cc(C(=O)N/N=C/c3c[nH]c4ccccc34)n[nH]2)o1 | 12
O=C1Nc2ccccc2N(O)N1c1ccc(S(=O)(=O)N2CCOCC2)cc1 | 21
c1ccc2oc(-c3ccc(Nc4nc(N5CCCC5)nc(N5CCOCC5)n4)cc3)nc2c1 | 5
COc1ccc(CCNC(=O)CSc2nnc(-c3ccccc3)c3ccccc23)cc1OC | 14
NNc1nc2c(Cl)ccc(Cl)c2s1 | 15
CCC(C)c1ccc(OCCn2ccnc2)cc1 (stereo not given) | 16

Among those listed so far, these contain a nitro group on carbon:
molecule | Calb biofilm kill
O=C(Cn1cnc([N+](=O)[O-])n1)NCCc1ccccc1 | -2
O=C(Cn1cnnn1)Nc1cccc([N+](=O)[O-])c1 | 15
O=[N+]([O-])c1ncccc1Oc1nc(-c2cccnc2)nc2ccccc12 | 15
O=C(c1cc2ccc([N+](=O)[O-])cc2oc1=O)N1CCOCC1 | 7

Other records follow:
molecule | Calb biofilm kill
COc1cccc(OC)c1NC(=O)c1nc2c(nnn2Cc2ccccc2Cl)c(=O)[nH]1 | 13
CN(C)c1ccc(C(=O)NNC(=O)c2ccc(Cl)cc2)cc1 | 10
COc1ccc(-c2[nH]nc3c2C2(C(=O)N(CC(=O)O)c4ccccc42)C(C#N)=C(N)O3)cc1OC (stereo not given) | 19
O=C(NNC(=O)c1cnccn1)c1cccc([N+](=O)[O-])c1 | 13
COc1ccc(-n2c(=S)[nH]c3cc(C(=O)Nc4ccc(OC)c(OC)c4)ccc3c2=O)cc1 | 12
O=c1c2ccccc2[nH]c(=S)n1CCc1ccccc1 | 7
O=C(N/N=C/c1c(O)ccc2ccccc12)c1[nH]ncc1Br | 19
O=C(O)[C@H](Cc1ccccc1)NC(=O)N1CCC(Cc2ccccc2)CC1 | 13
CC1CCCN(C(=S)NCc2ccccc2)C1 (stereo not given) | 13
COc1ccc(NC(=O)Nc2cc(C)cc(C)c2)cn1 | 16

Ordered by molar mass (rising): 5 of the compounds above.
molecule | Calb biofilm kill
COc1ccc(NC(=O)Nc2cc(C)cc(C)c2)cn1 | 16
O=C(NNC(=O)c1cnccn1)c1cccc([N+](=O)[O-])c1 | 13
COC(=O)c1sccc1NC(=O)C1CCCCC1C(=O)O (stereo not given) | 9
CCCn1c(=N)n(CC(O)COc2ccc(C)cc2)c2ccccc21 (stereo not given) | 20
O=C1Nc2ccccc2N(O)N1c1ccc(S(=O)(=O)N2CCOCC2)cc1 | 21

Going on with the list:
molecule | Calb biofilm kill
C=CCNC(=O)C1CCN(c2cnccn2)CC1 | 1
O=C1NC(=O)C2C1C(c1cccs1)NN2Cc1ccccc1 (stereo not given) | -15
COc1cc(C(=O)NC(=S)N2CCCCCC2)cc(OC)c1OC | 31
O=C(NCc1cccnc1)C(=O)N/N=C/c1ccccc1[N+](=O)[O-] | 11
CCc1cccc(NC(=O)c2ccc(Cn3c(=O)[nH]c4ccsc4c3=O)cc2)c1 | 11
C=CCn1c(SCC(=O)Nc2ncc(Cc3ccc(C)c(Cl)c3)s2)nnc1-c1ccncc1 | 8
C/C=C\C=C/C(=O)Nc1cccc(C2=NOC3(C2)C[C@@H](C(N)=O)N(C(=O)/C=C/CC)C3)c1 (stereo not given in full) | 13
C[C@H]1C=C(C(=O)NCc2ccccc2)O[C@@H](OCc2ccc(CO)cc2)C1 | 19
Cc1ccc(C)c(S(=O)(=O)N2CCN(CC(=O)Nc3sccc3C#N)CC2)c1 | 10
CS(=O)(=O)NCc1nnc(SCc2ccc(C(F)(F)F)cc2)o1 | 18
N=C1C(c2nc3ccccc3s2)=C(O)CN1NC(=O)c1ccco1 | 17
CC(=O)Oc1ccc(/C=C2/Oc3ccccc3C2=O)cc1 | 24
Cc1ccccc1OCC(O)CN1CCN(CC(O)COc2ccccc2C)CC1 (stereo not given) | 13
CC(NC(=O)CCc1nnc(Cc2cccc(C(F)(F)F)c2)o1)C1CC1 (stereo not given) | 20
CCOc1cc(/C=N/NC(=O)c2cc(C3CC3)[nH]n2)ccc1O | 9
N#Cc1c(C(F)(F)F)cc(=O)[nH]c1SCC(=O)O | 17
C=CCSC1=N/C(=C\c2cccnc2)C(=O)N1c1ccc(OC)cc1 | 6
COc1cc2c(cc1OC)C(C(=O)NCCN(C)C)C(c1cccs1)N(C)C2=O (stereo not given) | -8
COc1ccc(OCC(=O)N/N=C(/C)Cc2ccccc2)cc1 | 8
CCCCCOc1ccc(/C=c2\sc3nc(=O)c(-c4ccccc4)nn3c2=O)cc1OC | 6
CCc1ccc(NC(=S)N(CCCN2CCOCC2)Cc2ccccn2)cc1 | 8
CCC(Oc1ccccc1)C(=O)O/N=C(\N)c1ccc(OC)c(OC)c1 (stereo not given) | 26
Nc1ccc2nc(CCc3ccccc3)[nH]c2c1 | 18
O=C(O)c1ccccc1/C=N/NC(=S)NCc1ccccc1 | 16
O=C(CSc1ccc2ccccc2c1)Nc1ncccn1 | 7
CC1CC(C)(C)NC(=S)N1CCCC(=O)Nc1ccc(F)c(F)c1 (stereo not given) | 0
Cn1nccc1NC(=O)Nc1cccc([N+](=O)[O-])c1 | 24
CCOc1ccccc1/C=C/c1cc(C(=O)O)c2ccccc2n1 | 31
Cc1cc(C)cc(C(=O)N2CCN=C2c2ccccc2)c1 | 11
CC(C)CC(c1nnnn1Cc1ccc2c(c1)OCO2)N1CCC(C(N)=O)CC1 (stereo not given) | 11
Nc1c(-c2ccccc2)c(CN2CCOCC2)nn1-c1ccc(C(=O)O)cc1 | 18
CCc1ccc(N(CC(=O)NCc2ccc(F)cc2)C(=O)c2csnn2)cc1 | -3
CCn1cc(/C=N\NC(=O)COc2cccc(C)c2C)c(C)n1 | 6
CSc1c(CC(=O)Nc2ccccc2)n(Cc2ccccc2)c2ccccc12 | 22
CCC(C)NC(=O)c1ccccc1NC(=O)CN(c1cc(C)ccc1OC)S(C)(=O)=O (stereo not given) | 9
CC(=O)CSc1nnc(-c2ccc3c(c2)OCO3)o1 | -2
CCc1ccccc1Nc1nc(N)nc(CSc2nnnn2C)n1 | 10
Cc1ccc(/C=N/n2c(=O)c(C(C)(C)C)nn3cnnc23)cc1 | 13
O=C(COC(=O)Cc1cccc(C(F)(F)F)c1)Nc1cccc2ccccc12 | 15
O=C(NCc1cccnc1)c1ccccc1[N+](=O)[O-] | 18
O=C(Nc1ccc(C(=O)OC[C@@H]2CCCN3CCCC[C@H]23)cc1)c1cccc(Br)c1 | 29
COCCNC(=O)C(NC(=O)C1CCC(C)CC1)C(C)C (stereo not given) | -3
Cc1cc(-c2ccccc2)nc2cc(C(=O)N(Cc3ccccc3)Cc3ccccc3)nn12 | 10
Cc1ccc(S(=O)(=O)NCC2COc3ccccc3O2)cc1 (stereo not given) | 17
CCOc1ccc(C2=Nc3ccc(Br)cc3C(c3ccc(N4CCOCC4)cc3)=NN2)cc1 | -4
O=c1ccccn1CCOc1ccc(Cl)cc1 | 10
Nc1nnc(SCC(=O)NCCOc2ccccc2)s1 | -2
COc1cccc(-c2nc3ccc([N+](=O)[O-])cc3o2)c1 | 16
O=C(NC(Cc1c[nH]c2ccccc12)C(=O)N/N=C/c1cccc2ccccc12)c1cccs1 (stereo not given) | 17
O=C(CCS(=O)(=O)Cc1ccccc1)Nc1ccc2c(c1)OCCO2 | 8

The results go on:
molecule | Calb biofilm kill
C/C(=C\c1ccco1)CN1CCN(Cc2ccc(C)o2)C(CCO)C1 (stereo not given) | 9
C=CC(C)(C)c1[nH]cnc1/C=C1\NC(=O)C(C(C)C)NC1=O (stereo not given) | 18
CCCCN(C)C(=O)c1nc2ccccn2c1CN1CCN(C/C=C/c2ccccc2)CC1 | -3
CCCN1C2CCCC1CC(NC(=S)Nc1cc(C)ccc1C)C2 (stereo not given) | 21
CC(C)Cn1c(N)c(C(=O)COC(=O)c2cc(C(F)(F)F)nc3c(C(F)(F)F)cccc23)c(=O)n(C)c1=O | 6
Clc1nc(-c2cccnc2)nc2scc(-c3ccccc3)c12 | 4
COc1ccc(C(CCN(Cc2ccc(OC)c(OC)c2)C(C)=O)c2ccccc2)cc1 (stereo not given) | 11
O=C(Nc1c(C(=O)O)[nH]c2ccccc12)c1cccc(C(F)(F)F)c1 | 27
CSc1nc(C(=O)N2CCCC(C(=O)c3ccc(Cl)cc3)C2)cs1 (stereo not given) | -4
COc1ccc(/C=C2/C(=O)N(Cc3ccccc3)N=C2C)cc1 | 18
Cc1cc(C)nc(N/N=C/c2ccc(Cl)cc2)n1 | 20
N#Cc1cc(C(=O)c2cc(Br)ccc2O)cn(Cc2ccccc2)c1=O | 15
COCCN(CCOC)c1nc(N)c2c(N)nc3c(c2c1C#N)CC(=O)N3Cc1ccc(Cl)cc1 | 18
CCCN1C(=O)/C(=C/c2ccc(OCC(=O)OCC)cc2)NC1=S | 2
CNC(=O)C(NC(=O)c1ccccc1)=C(C)C | 21
COc1cc(O)c(C(CCN2CCCC(C)C2)c2ccc(N(C)C)cc2)c(OC)c1 (stereo not given) | 5
O=C(OC1CCOC1=O)c1cccc(S(=O)(=O)N2CCc3ccccc3C2)c1 (stereo not given) | 8
COC1C=CC(CNC(=O)c2cc3c(=O)n4cccc(C)c4nc3n2C)(OC)O1 (stereo not given) | 12
Cn1c(N)c(C(=O)COC(=O)CSc2ccccc2)c(=O)n(C)c1=O | 16
Cc1ccc(S(=O)(=O)N[C@@H](Cc2ccccc2)C(=O)CCl)cc1 | 8
O=C(COC(=O)c1cccc(N2C(=O)c3ccccc3C2=O)c1)Nc1ccccc1 | 16
C/C(=C/C(=O)O)C(=O)Nc1cccc(C(F)(F)F)c1 | 12
Fc1ccc(COc2ccc(-c3nnco3)cc2)cc1 | 19
COC(=O)c1nc(NC(=O)c2ccc(C(C)(C)C)cc2)n[nH]1 | 21
CC(NC(=O)COc1ccccc1)C(c1cccs1)N1CCCC1 (stereo not given) | 12
COc1ccc(-c2[nH]ncc2CN(C)Cc2ccccn2)c(OC)c1 | 20
Cc1ccccc1NC1=NC2(CCCC2)N=C(N)N1 | 13
CCC(=O)N(CCC1(C(C)C)CCOC(C)(C)C1)C(C)c1cccs1 (stereo not given) | 7
Cc1ccc(-c2csc(NC(=O)CSc3nc4ccccc4c(=O)n3CCCN(C)C)n2)cc1 | 7
CCOC(=O)/C=c1\s/c(=C\c2ccc(C(=O)OC)cc2)c(=O)n1CC(=O)Nc1ccccc1 | 14
COc1ccc(/C=C(/NC(=O)c2ccc([N+](=O)[O-])cc2)C(=O)NC(C)(C)C)cc1 | 19
Cc1ccc(C)c(OCCCC(C)(C)C(=O)O)c1 | 18
CCn1c2c(c(=N)c3c1CCC3)CCC2 | 6
Cc1ccc(NCc2nnc(SCC(=O)Nc3nnc(C)s3)n2C)cc1 | 8
C#CCOCCOCCOCCNc1nc(N2CCOCC2)nc(N2CCN(C(=O)[C@H]([C@@H](C)CC)n3cc([C@@H](N)CO)nn3)CC2)n1 | 4
COC(OC)C12c3ccccc3C(c3ccccc31)C1C(=O)N(c3cccnc3)C(=O)C12 (stereo not given) | -3
COc1cccc(C(=O)O/N=C(\N)c2ccncc2)c1OC | 18
Cc1ccc(NC(=O)COC(=O)c2ccc3c(c2)C(=O)N(CCc2ccccc2)C3=O)c(C)c1 | 12
CCN(CC(=O)NCCc1ccccc1)S(=O)(=O)c1ccccc1 | -8
CCN(CCn1cccn1)Cc1nc(Cc2cccc(F)c2)no1 | 13

Screening results (PubChem)

Only part of the results is shown (hit frequency here may not be typical).
